Screens as filed in PubChem.
YopH PTP inh = blocks Yersinia enterocolitica YopH tyrosine phosphatase; inhibition, %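 (about 10 µM by stock and volumes)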; fluorescence Ex485/Em525; AID 898; hit rate 0.16% among 140,000;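 active = inhibition of 50% or more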;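 also: controls were vehicle for no effect and minimum signal wells for full effect; inactives centre near -20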
Mtb betalactam = beta-lactam sensitization of Mtb H37Rv; inhibition, % at 25 µM; hit rate 0.27% among 330,000; M. tuberculosis H37Rv growth with meropenem, percent inhibition; hits of this screen are not shown here;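 active = about 74% or more and at least 40 points above the plate without the antibiotic, then above 30% in a dose series; inconclusive = first-round hits that could not be retested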;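 also: growth measured after seven days incubation then overnight dye step; 0% = bacteria only wells and 100% = bacteria with antibiotic; twin plates without the antibiotic show which effects depend on it; some results filed as inactive read as strong as hits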
Mtb growth = M. tuberculosis H37Rv growth inhibitors, H37Rv strain (AID 1626) | M. tuberculosis H37Rv growth inhibition; higher % means a stronger effect | inhibition, % at 10 µM, or IC50 in µM where a hit was titrated | hit rate 0.95% among 220,000;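 active = confirmed in a dose series; inconclusive = inhibition above 80% but not taken into the dose series; inactive = below 80% or under 30% at every dose of the series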;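 also: bacteria incubated seven days before Alamar blue readout; 0% = bacteria only wells and 100% = bacteria with antibiotic wells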
Arbovirus anti = antivirals against arbovirus infection | arbovirus infection cell-based antiviral screen | inhibition, % at 10 µM | hit rate 0.37% among 200,000 | AID 1251;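 active = inhibition from about 30%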;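 also: bluetongue infection of BSR cells; cell survival read as ATP light after 72 h; 0% = infected wells without compound and 100% = uninfected wells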
RecA intein inh = blocks M. tuberculosis RecA intein splicing; P9WHJ3; cell-free RecA intein splicing, fluorescence; inhibition, %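 (about 9 µM by stock and volumes)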; hit rate 0.75% among 290,000; in the data active = inhibition above about 30%; inconclusive = no clear call, values can overlap the other calls;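 also: 0% = vehicle wells and 100% = reference inhibitor control wells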
Target sequence (P9WHJ3 whole entry, looked up): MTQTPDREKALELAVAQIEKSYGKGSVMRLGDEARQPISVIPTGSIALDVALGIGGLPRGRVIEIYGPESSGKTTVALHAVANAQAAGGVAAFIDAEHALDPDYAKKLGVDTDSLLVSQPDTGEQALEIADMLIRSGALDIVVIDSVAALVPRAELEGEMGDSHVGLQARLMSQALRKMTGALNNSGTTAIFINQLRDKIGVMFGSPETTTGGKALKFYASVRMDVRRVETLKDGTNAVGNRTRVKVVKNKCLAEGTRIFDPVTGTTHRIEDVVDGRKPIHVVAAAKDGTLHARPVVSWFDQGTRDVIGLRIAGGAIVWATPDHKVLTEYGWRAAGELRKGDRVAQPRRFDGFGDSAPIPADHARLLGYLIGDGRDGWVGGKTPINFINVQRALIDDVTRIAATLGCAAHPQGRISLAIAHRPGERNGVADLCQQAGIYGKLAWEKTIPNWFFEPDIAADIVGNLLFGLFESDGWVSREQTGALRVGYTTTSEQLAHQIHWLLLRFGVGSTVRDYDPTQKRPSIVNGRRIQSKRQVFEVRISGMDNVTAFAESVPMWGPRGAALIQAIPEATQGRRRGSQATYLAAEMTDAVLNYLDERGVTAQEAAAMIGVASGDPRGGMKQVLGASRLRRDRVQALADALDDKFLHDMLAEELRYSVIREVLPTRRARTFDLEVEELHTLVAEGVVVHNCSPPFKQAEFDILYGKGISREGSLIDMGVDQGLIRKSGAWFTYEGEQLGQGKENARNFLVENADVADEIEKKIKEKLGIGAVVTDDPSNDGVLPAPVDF
Arbovirus anti repeat = also measured in Arbovirus anti; calls as there; inhibition, %; measured here: 10K subset replicate screen; many hits read low in the repeat;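 first of two repeat runs on a subset; 0% = infected and 100% = uninfected wells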
The depositor's hits bear a star; ? = inconclusive; . = not tested or not shown. An excerpt; count on the stated rates, not on these rows.

SMILES	YopH PTP inh	Mtb betalactam	Mtb growth	Arbovirus anti	RecA intein inh	others
CCCn1cc(C(CC(=O)O)C(=O)O)c2ccccc21 (stereo not drawn)	18	-1	-6%	3	0.4
Cc1ccnc2nc(C(=O)NC3=NCCS3)nn12	-32	-9	0%	5	9.1
Cc1ccc(-n2nc3c(c2NC(=O)C2CCCC2)CS(=O)(=O)C3)cc1	.	-1	.	.	14
C/C(=N\Nc1ccc([N+](=O)[O-])cc1)c1ccc(-n2nncc2C(C)(C)C)cc1	-17	-2	3%	-3	-0.7
Cc1ccccc1CNC(=O)c1ccccc1NS(C)(=O)=O	.	-6	2%	0	0.8
COC(=O)C1=C(C)NC(C)=C(C(=O)O[C@@H]2CCCN(Cc3ccccc3)C2)[C@@H]1c1cccc([N+](=O)[O-])c1	.	15	27%	.	22
C=CCN1C(=NC(=O)CCCC(=O)O)SC2CS(=O)(=O)CC21 (stereo not drawn)	-4	20	1%	-4	.
CC(=O)Nc1ccc(Nc2nnc(-c3ccc(O)cc3)c3ccccc23)cc1	.	-3	.	.	1.8
Nc1nonc1C(=O)OCC(=O)c1ccc(Cl)cc1	13	1	-3%	-6	0.1
COc1c(C)cc(Br)cc1C(=O)NC(=S)Nc1ccc(Cl)c(C(=O)O)c1	.	2	-3%	7	-1.2
COc1ccc(NC(=O)C(OC(=O)c2ccc([N+](=O)[O-])o2)c2ccccc2)cc1Cl (stereo not drawn)	-33	8	-3%	-1	18
COc1ccc(C(=O)CC(=O)C(=O)Nc2cccc([N+](=O)[O-])c2C)cc1	.	7	.	.	-3.3
CC(=O)c1ccc(-n2c(CCC(=O)O)ccc2-c2ccc(C)cc2)cc1	.	7	.	.	0.4
Cc1nc(C)n(CC(=O)N2CCCC(C(=O)c3cccc4ccccc34)C2)n1 (stereo not drawn)	.	-2	7%	5	1.1
CCOC(=O)c1c(-c2cccc(C)c2)csc1NC(=O)c1c(-c2ccccc2)noc1C	-21	-5	4%	27	2.3
COc1ccccc1NC(=O)Nc1nc(CC(=O)NCc2c(F)cccc2F)cs1	.	-2	.	.	0.4
O=C(Cc1ccccc1)NC1CCN(C(=O)NCc2ccccc2)CC1	-13	-4	1%	4	0.4
CC1(C)C2([N+](=O)[O-])CN3CC1([N+](=O)[O-])CN(C2)C31CCCC1	1	4	-4%	13	-0.2
O=c1[nH]c2ccc(S(=O)(=O)Nc3ccc(-c4nnc5n4CCCCC5)cc3)cc2o1	-23	1	0%	5	-3.5
O=C(NC(=S)Nc1ccc(CN2CCOCC2)cc1)c1ccc(-c2cccc(Cl)c2)o1	.	64	37%	.	-1.5
COCCNc1oc(/C=C/c2ccc(F)cc2)nc1S(=O)(=O)c1ccccc1	.	2	.	.	-0.3
COc1ccc(CNC(=O)CSc2nc3ccc(OC)cc3[nH]2)cc1	.	-2	.	.	1.5
COc1ccc(N2C(=O)/C(=C/c3cccs3)NC2=S)cc1	-15	25	9%	1	6.1
COc1cccc(C(=O)Nc2nc(C)cs2)c1	-79	-10	-3%	4	0.7
COc1ccc(S(=O)(=O)N2CCN(c3cccc(C)c3C)CC2)cc1	-48	-2	-4%	16	9.1	Arbovirus anti repeat=13

Other results.
SMILES	YopH PTP inh	Mtb betalactam	Mtb growth	Arbovirus anti	RecA intein inh	others
CC(C)S(=O)(=O)c1csc(NC(=O)Nc2ccc(Cl)cc2)c1Cl	.	7	11%	.	13
CCOc1ccc(C(=O)OCC(=O)NCc2ccco2)cc1OCC	-42	0	-12%	2	-1.5
O=C(Nc1ccc2c(c1)ncn2-c1ccccc1)c1ccco1	-21	-19	-2%	-4	-1.8
CCCC(=O)c1ccc(N2CCC(C)CC2)c(F)c1	-34	-5	1%	1	3.4
CC1=NN(Cc2ccccc2)C(=O)/C1=C/c1ccc(N(C)C)cc1	-6	-1	-10%	3	43*
O=C(Nc1ccc(-c2cnco2)cc1)c1ccc(F)cc1F	.	2	-6%	.	.
COc1ccc(CNc2ccc(S(=O)(=O)N3CCN(C)CC3)cn2)cc1OC	.	2	.	.	-2.9
O=C(NC1CCCC1)C(c1ccccn1)N(Cc1ccc(F)cc1)C(=O)c1csnn1 (stereo not drawn)	.	2	.	.	-0.6
O=C(COC(=O)C1CCC1)Nc1ccc(Oc2ccccc2)cc1	10	87	26%	-6	3.0
COc1ccccc1OCC(O)CO (stereo not drawn)	.	-9	-10%	2	3.7
COc1cc2c(cc1OC)C(C)N(CC(=O)Nc1ccc(C)c(S(=O)(=O)N3CCOCC3)c1)CC2 (stereo not drawn)	.	-1	.	.	1.3
CCCCOc1c(C(=O)Nc2ccccc2)nnn1-c1ccccc1	.	2	8%	4	-3.9
COc1cc(OC)cc(C(=O)NC(=S)Nc2ccc3[nH]c(=O)[nH]c3c2)c1	.	7	.	.	-0.4
CC1(C)CC(=O)C2=C(C1)Nc1cc3c(cc1C2c1ccc2c(c1)OCO2)OCO3 (stereo not drawn)	-31	-5	3%	-13	-21
Cc1nc(-c2ccc(NC(=O)C(C)(C)C)cc2)c(-c2ccccc2)o1	.	4	.	.	-1.1
Cc1nn(-c2ccccc2)c(C)c1-c1nnc(C(F)(F)F)o1	.	-3	.	.	-3.9
CC(C)OCC(O)CN1CCN(CC(O)COc2ccc3c(c2)OCO3)CC1 (stereo not drawn)	31	5	-8%	4	2.4
O=C(CSc1nc(N2CCCCC2)nc(N2CCCCC2)n1)N1CCc2ccccc21	-23	.	-2%	1	12
C=CCn1c(C)cc(C(=O)CSc2n[nH]c(N)n2)c1C	-18	10	-5%	-1	1.1
COc1cc(OC)cc(-n2nnnc2SCC(=O)Nc2nc3c(s2)CCCC3)c1	-12	-4	4%	-4	1.5
CN1CCN(CC(=O)Nc2ccc([N+](=O)[O-])cc2C(=O)c2ccccc2)CC1	.	-6	-2%	0	.
O=c1c2c([nH]c3ccccc13)CCC2	.	-7	.	.	2.1
Cc1cnc(=O)[nH]c1SCc1cccc(C(F)(F)F)c1	.	1	.	.	1.9
CC1(C)CC(=O)C/C(=N\NC(=O)Cc2ccccc2)C1	-34	8	3%	-10	0.2
CSc1nncc(/C(C)=N\Nc2ccccc2)n1	-27	8	2%	-11	1.2

Continued; it opens with the six that closed the last part.
SMILES	YopH PTP inh	Mtb betalactam	Mtb growth	Arbovirus anti	RecA intein inh	others
COc1cc(OC)cc(-n2nnnc2SCC(=O)Nc2nc3c(s2)CCCC3)c1	-12	-4	4%	-4	1.5
CN1CCN(CC(=O)Nc2ccc([N+](=O)[O-])cc2C(=O)c2ccccc2)CC1	.	-6	-2%	0	.
O=c1c2c([nH]c3ccccc13)CCC2	.	-7	.	.	2.1
Cc1cnc(=O)[nH]c1SCc1cccc(C(F)(F)F)c1	.	1	.	.	1.9
CC1(C)CC(=O)C/C(=N\NC(=O)Cc2ccccc2)C1	-34	8	3%	-10	0.2
CSc1nncc(/C(C)=N\Nc2ccccc2)n1	-27	8	2%	-11	1.2
CCCNC(=O)c1ccc2c(c1)ncn2-c1ccccc1OC	-31	54	3%	-8	1.8
Cc1nnc(SCC(=O)NC2CC2)n1CCc1ccccc1	-45	-3	-1%	10	-2.3
COc1ccc2cc(C(=O)NCc3ccccc3)c(=Nc3ccc(C(=O)O)cc3)oc2c1	.	14	6%	-15	-2.9
Cc1ccc(NC(=O)c2ccc(-c3nn(C)c(=O)c4ccccc34)cc2)cc1	12	4	11%	-1	-0.1
C/C(=N\NC(=O)CSCc1ccccc1Cl)c1cc(O)ccc1O	.	2	0%	-10	16
COc1ccc(C)cc1NC(=O)CSc1nnc2ccc(-c3cccnc3)nn12	.	-10	.	.	-2.0
COCCN1CCN(C(=O)C2CCC(=O)N(CCc3cccc(F)c3)C2)CC1 (stereo not drawn)	.	7	.	.	-2.8
Cn1c(CNC(=O)CCNC(=O)c2cccc(Cl)c2)cc(=O)n(C)c1=O	.	-3	.	.	0.1
Cc1ccc(S(=O)(=O)N(CC(=O)NCc2ccco2)C2CCCCC2)cc1	-12	-5	5%	-5	3.1
COc1ccc(OC)c(NC(=O)CCNS(=O)(=O)c2ccc3[nH]c(=O)oc3c2)c1	.	7	.	.	0.0
CC(=O)NC1CCC(C(=O)O)(c2ccccc2)C1 (stereo not drawn)	-31	-5	-15%	5	1.8
Cc1nc2cc(-c3cccc(F)c3)nn2c(C)c1CCC(=O)N1CCN(c2ccccn2)CC1	.	0	17%	-4	-0.3	Arbovirus anti repeat=-1
COC(=O)/C=C/c1ccc2c(c1)OCO2	.	4	-1%	9	-9.6
COc1ccc(C(CNC(=O)Cc2ccc(Cl)c(Cl)c2)N(C)C)cc1 (stereo not drawn)	.	8	6%	-18	1.1
COc1ccc(NC(=O)c2cc(-c3ccncc3)nc3ccc(Br)cc23)cc1OC	.	4	.	.	0.6
COC(=O)C(Cc1ccc(O)cc1)NC(=O)C(CC(=O)OC(C)(C)C)NC(=O)OC(C)(C)C (stereo not drawn)	.	4	4%	3	0.9
O=C(C[n+]1cc(-c2ccc(Cl)cc2)n2c1CCC2)N1c2ccccc2Sc2ccccc21	2	99	12µM*	-14	0.9
O=c1oc(-c2ccco2)nc2c1cnn2-c1ccccc1	-52	91	12%	1	-2.2
CC(NC(=O)COC(=O)Cc1ccsc1)c1ccccc1 (stereo not drawn)	-30	-3	-1%	4	-1.3
CC(C)(C)c1ccc(CN2N=Nc3ccccc3S2(=O)=O)cc1	-21	100	21%	-36	-0.5
COCCOC(=O)c1[nH]c2c(c1C)C(=O)CC(c1ccc(N(C)C)cc1)C2 (stereo not drawn)	-35	23	15%	-6	-1.2
COc1cc(NC(=O)COc2c(C)cc(C)cc2[N+](=O)[O-])c(OC)cc1Cl	-23	-8	-5%	-8	-1.6
CC(O)c1nc2ccc(Cc3ccc4nc(C(C)O)[nH]c4c3)cc2[nH]1 (stereo not drawn)	-36	-3	-8%	1	0.7
Nc1nc(-c2ccccc2)nc(-c2ccccc2O)n1	-24	1	7%	.	0.3
CCOC(=O)C1CCCN(S(=O)(=O)c2ccc(F)c(C(=O)Nc3ccc(F)c(F)c3)c2)C1 (stereo not drawn)	-10	-1	-4%	13	.

(more compounds)
SMILES	YopH PTP inh	Mtb betalactam	Mtb growth	Arbovirus anti	RecA intein inh	others
Cc1cc(NC(=O)COC(=O)COc2ccc3c(c2)CCC3)no1	-17	25	-10%	10	.
O=C(c1cc2cc([N+](=O)[O-])ccc2oc1=O)n1cccn1	.	-11	3%	4	0.7
C/C(=N\NC(=O)c1ccc(F)cc1)c1cccc(NC(=O)c2cccc(F)c2)c1	.	-2	.	.	-3.6
COC(=O)C(CCSC)NC(=O)C(NC(=O)C1CCC(C)CC1)C(C)C (stereo not drawn)	-8	-3	2%	5	-5.9
CCOc1cc(/C=N/NC(=O)CN(CCc2ccccc2)S(=O)(=O)c2ccc(NC(C)=O)cc2)ccc1O	7	-16	0%	-43	-0.9
Nc1nnc(SCc2ccc3c(c2)OCO3)s1	-120	-6	1%	4	2.1
Cn1nc(C(=O)N2CCN(c3ccccn3)CC2)c2ccccc2c1=O	.	-14	.	.	-1.8
COc1ccc(C(=O)Nc2cccc(-c3ccc4nncn4n3)c2)cc1OC	.	-1	-1%	1	-1.8
Cc1ccc(C)c(Cn2cnc3c(cnn3C(C)(C)C)c2=O)c1	-36	62	5%	6	-3.6
CCOc1ccc(NC(=O)c2oc3ccccc3c2NC(=O)CC)cc1	-52	-13	.	-6	-0.6
COc1cc(CCC(=O)NNC(=O)c2cccc(Cl)c2)cc(OC)c1OC	.	-4	.	.	-0.1
Cc1ccc(O)c(C(=O)c2cnn(-c3ccc(S(=O)(=O)N4CCOCC4)cc3[N+](=O)[O-])c2)c1	-20	-2	-5%	1	2.6
CCOC(=O)C1(Cc2ccc(OC)cc2)CCN(C(=O)c2sc(C)nc2C)CC1	.	-3	12%	8	3.7
Cc1cc(Br)ccc1OCCn1ccnc1	-1	4	-4%	-1	0.4
Cc1cccc(OCc2ccc(C(=O)N3CCOCC3)o2)c1	.	-1	.	.	5.3
O=C(CCN1C(=O)/C(=C/c2ccccc2Cl)SC1=S)NCCCN1CCOCC1	.	4	.	.	9.2
C=CCN(C(=O)c1cccc(S(=O)(=O)N2CCN(C)CC2)c1)c1nc(-c2ccccc2)cs1	13	99	?	-12	9.3
Cc1cc(C(=O)COC(=O)c2cccs2)c(C)n1-c1c(C)n(C)n(-c2ccccc2)c1=O	-28	3	1%	2	5.6
CCCc1cc(=O)n2[nH]c(SCc3ccccc3)nc2n1	-4	1	-19%	19	2.1
CC(C)OP(=O)(OC(C)C)C(Nc1ccccc1)c1cccc2c1OCO2 (stereo not drawn)	-34	-5	-3%	2	4.6
CN(Cc1ccc(C(C)(C)C)cc1)C(=O)c1ccc2c(=O)n3c(nc2c1)CCC3	.	-3	.	.	-0.9
